Assay outcomes (PubChem)
LASV entry inh: inhibitors of Lassa virus binding or cell entry; Lassa virus pseudotype entry inhibition, cell reporter; control for the full effect not named in the record; Potency, µM (top dose mostly 37.9 µM), without a hit: at the top dose activity change, negative = inhibition, hits mostly inhibitors; 300,000 compounds, 1.2% hits; AID 540256; active means well fitted inhibition curve with a large enough effect; inconclusive means small, poorly fitted or top-dose-only effect, or effect the other way; inactive means flat fitted curve, though single readings scatter; tested in HEK293 cells; also: % is scaled to controls: 0 for no effect and ±100 for the full control effect; nearly all actives have a fitted effect of over 50% in size; luciferase read-out
MARV entry inh: blocks Marburg virus binding to or entry into cells. Marburg virus pseudotyped entry inhibition, cell reporter; control for the full effect not named in the record; about a third of the inactives were read at about 46 µM. Potency, µM (highest dose often 37.8 µM), without a hit: at the highest dose activity change, negative = inhibition, usual class: inhibitors. 300,000 compounds, 1.8% hits; active = well fitted inhibition curve with a large enough effect; inconclusive = small, poorly fitted or top-dose-only effect, or effect the other way; inactive = flat fitted curve, though single readings scatter; tested in HEK293 cells; about a fifth of its hits are not listed in these tables; also: % is scaled to controls: 0 for no effect and ±100 for the full control effect; luciferase read-out
StopGo reporter: lowers the luciferase signal of an FMDV 2A StopGo reporter. Potency, µM (titrated, usually from 57.9 µM), for the others: top-dose signal change, negative = less light. 410,000 compounds, 1.2% hits. human cells with a luciferase reporter of 2A StopGo recoding; control for the full effect not named in the record. AID 1159524; active = well fitted falling curve with a large enough effect; inconclusive = small, poorly fitted or top-dose-only effect; inactive = no such curve, though single readings can be large or run the other way; tested in HEK293T cells; also: % is scaled to controls: 0 for no effect and ±100 for the full control effect; nearly all actives have a fitted effect of over 45% in size; luciferase light after 4 h
NS1 function inh: inhibitors of influenza NS1 protein function; S. cerevisiae slowed by influenza A NS1, growth recovery by OD600; AID 2326; Potency, µM (titrated, usually from 46.1 µM), for inactives: at the highest dose activity, positive = more growth; 270,000 compounds, 0.4% hits; also: actives are rising curves; nearly all actives have a fitted effect of over 50% in size
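A cell-based growth assay was used: compounds that relieve NS1-induced slow growth of budding yeast raise OD600. Assay medium was yeast nitrogen base with ammonium sulphate and -URA supplement, pH 6.0, with 2% galactose.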
RE007 growth inh: less growth of the S. pombe RE007 Vpr strain; S. pombe RE007 Vpr strain, BacTiter-Glo ATP luminescence, 24 h; control for the full effect not named in the record; Potency, µM (titrated, usually from 92.2 µM), for inactives: at the highest dose activity change, negative = less growth; 360,000 compounds, 0.21% hits; AID 651644; active = well fitted falling curve with a large enough effect; inconclusive = small, poorly fitted or top-dose-only effect; inactive = no such curve, though single readings can be large or run the other way;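 also: % is scaled to controls: 0 for no effect and ±100 for the full control effect; nearly all actives have a fitted effect of over 50% in size; the assay follows cell death caused by Vpr and the record does not say whether a fall means rescue or toxicity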
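Fission yeast strain RE007, carrying one chromosomally integrated HIV-1 vpr copy, was seeded at OD 0.01 in PMG+AL medium with 23 nL pinned compound. After 24 h at 30 °C and 99% humidity, viability was read by BacTiter-Glo luminescence.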
Cruzain inh Det: cruzain (T. cruzi) inhibition with detergent. Potency, µM, for inactives: max response, negative = inhibition, actives largely listed as inhibitors. P25779. purified cruzain, Z-FR-AMC fluorescence, 0.01% Triton. 200,000 compounds, 0.43% hits. AID 1478; active = well fitted curve in the direction sought with a large enough effect; inconclusive = small, poorly fitted or top-dose-only effect, or another doubt; inactive = no such curve, though single readings can be large; an effect the other way counts as inactive or inconclusive;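 also: plate controls were neutral wells for no effect and buffer without enzyme for full effect; nearly all actives have a fitted effect of over 40% in size; top concentration of the series not given in the record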
Target sequence (P25779 123-467 limits assumed): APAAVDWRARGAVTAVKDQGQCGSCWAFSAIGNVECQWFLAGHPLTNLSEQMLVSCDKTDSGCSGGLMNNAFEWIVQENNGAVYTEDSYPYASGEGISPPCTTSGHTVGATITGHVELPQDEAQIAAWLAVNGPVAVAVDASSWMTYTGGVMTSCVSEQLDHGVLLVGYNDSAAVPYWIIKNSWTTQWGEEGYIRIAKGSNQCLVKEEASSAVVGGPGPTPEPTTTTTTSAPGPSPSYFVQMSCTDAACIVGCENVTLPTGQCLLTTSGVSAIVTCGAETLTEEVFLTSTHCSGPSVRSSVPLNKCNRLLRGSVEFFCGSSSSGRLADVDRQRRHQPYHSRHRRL
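Detergent-containing run (0.01% Triton X-100) in acetate buffer pH 5.5 with 5 mM DTT: enzyme at 1.5 nM final, 15 min compound preincubation at room temperature, then 2 uM Z-FR-AMC substrate. Activity taken as 60 s fluorescence increase at 360/450 nm.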
SARS PLP yeast: SARS-CoV PLP inhibition in yeast; 330,000 compounds, 0.19% hits; S. cerevisiae expressing SARS-CoV PLpro, growth rescue; control for the full effect not named in the record; AID 485353; Potency, µM (titrated, usually from 32.9 µM), for the others: at the top dose activity, positive = growth rescue; also: 0% is about no effect; nearly all actives have a fitted effect of over 55% in size; growth read by luminescence after 48 h
Cruzain noTriton: inhibitors of Trypanosoma cruzi cruzain without detergent. P25779. purified cruzain, Z-FR-AMC fluorescence, no detergent. Potency, µM, without a hit: max response, negative = inhibition, hits mostly inhibitors. 200,000 compounds, 2.3% hits. AID 1476; active = well fitted curve in the direction sought with a large enough effect; inconclusive = small, poorly fitted or top-dose-only effect, or another doubt; inactive = no such curve, though single readings can be large; an effect the other way counts as inactive or inconclusive;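 also: plate controls were enzyme without inhibitor for no effect and buffer without enzyme for full effect; nearly all actives have a fitted effect of over 40% in size; top concentration of the series not given in the record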
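Detergent-free condition (0.00005% Triton X-100) in acetate buffer pH 5.5 with DTT. 1.5 nM enzyme and compound were pre-mixed 15 min, then 2 uM Z-FR-AMC substrate added; reaction progress from fluorescence change between first and third reads (60 s).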
Numbers without * were called inactive; ? = inconclusive; . = no result given; & = joins results of further samples; [ ] = remark or other dose. Unless noted, calls follow the shape of the dose curve; as a rule, active means well fitted rising curve with a large enough effect; inconclusive means small, poorly fitted or top-dose-only effect; inactive means no such curve, though single readings can be large or run the other way. Potency is read from the fitted curve at half-maximal effect. Compounds were not picked by outcome (roughly 4.8% active in at least one column).

entry | SMILES | LASV entry inh | MARV entry inh | StopGo reporter | NS1 function inh
1 | O=C(CCNS(=O)(=O)c1ccccc1)N1CCCCCCC1 | 18% | 8%[46.1 µM] | 9% | .
2 | CCc1nnc2c3ccccc3nc(N3CCN(c4ccc(C)cc4C)CC3)n12 | ? | . | -12% | .
3 | COc1ccc(OC)c(S(=O)(=O)N2CCCC2C(=O)N2CCc3ccccc3C2)c1 (stereo not given) | -6% | -3%[46.1 µM] | 28% | ?
4 | Cc1ccccc1OCCN(C#N)c1nc(N(C)C)nc(N(C)C)n1 | ? | ? | ? | -1%
5 | Cc1cc(C)n(-c2ccc(C(=O)Nc3cccc(S(=O)(=O)N4CCCC4)c3)cc2)n1 | ? | ? | -23% | .
6 | Cc1ccc(OCc2ccoc2C(=O)O)cc1C | 1% | ? | 24% | -77%
7 | CCOC(=O)CN1C(=O)S/C(=C\c2ccc3c(c2)OCO3)C1=O | . | . | 74%[activator] | 9%
8 | CC(=O)Nc1ccc(NC(=O)Nc2ccc(C)cc2C)cc1 | . | . | 0% | 1%
9 | CC(C)(C)N1C(=O)c2ccc(C(=O)Nc3ccc(C(=O)O)cc3)cc2C1=O | . | . | -6% | 7%
10 | OCCC#Cc1ccc(CN2CCN(Cc3ccsc3)C(CCO)C2)cc1 (stereo not given) | . | 12%[46.1 µM] | -15% | -1%
11 | COCCSc1ccccc1C(=O)Nc1ccc([N+](=O)[O-])cc1OC | . | . | -12% | -7%
12 | COc1cccc(OC)c1C(=O)OCC(=O)N1CC(C)CC(C)C1 (stereo not given) | 8% | ? | 1% | .
13 | CCOC(=O)Cn1c2ccc(OC)cc2c2nc3ccccc3nc21 | -23% | -18% | 15% | 1%
14 | S=C(Nc1ccccc1Cl)NC1CCC(NC(=S)Nc2ccccc2Cl)CC1 (stereo not given) | 23% | 15% | -18% | -3%
15 | O=C(NCC(=O)N1CCC2(CC1)NCCc1[nH]cnc12)c1ccc(Br)cc1 | . | . | -7% | ?

entry | RE007 growth inh | Cruzain inh Det | SARS PLP yeast | Cruzain noTriton
1 | 17% | . | -2% | .
2 | . | 1.5% | . | -9%
3 | -17% | . | 2% | .
4 | 2% | . | 0% | .
5 | -8% | . | -4% | .
6 | -14% | 4.9% | -1% | -11%
7 | -1% | . | 3% | .
8 | 6% | . | 1% | .
9 | -10% | . | 0% | .
10 | 4% | . | 0% | .
11 | ? | . | -1% | .
12 | -19% | . | -5% | .
13 | 16% | 2.4% | -6% | 5%
14 | -22% | . | 1% | .
15 | 3% | . | 2% | .

Grouped by structure, the compounds so far with a COOH group
entry | SMILES | LASV entry inh | MARV entry inh | StopGo reporter | NS1 function inh
6 | Cc1ccc(OCc2ccoc2C(=O)O)cc1C | 1% | ? | 24% | -77%
9 | CC(C)(C)N1C(=O)c2ccc(C(=O)Nc3ccc(C(=O)O)cc3)cc2C1=O | . | . | -6% | 7%

entry | RE007 growth inh | Cruzain inh Det | SARS PLP yeast | Cruzain noTriton
6 | -14% | 4.9% | -1% | -11%
9 | -10% | . | 0% | .

(continued)
entry | SMILES | LASV entry inh | MARV entry inh | StopGo reporter | NS1 function inh
16 | COc1cccc(CC(=O)OCC(=O)Nc2c(C)nn(-c3ccccc3)c2C)c1 | 7% | -10%[46.1 µM] | 11% | .
17 | COc1ccc(NC(=O)CSc2nccn2Cc2ccccc2)cc1 | 0% | ? | 38%[activator] | -5%
18 | COc1cc2cc(C(c3nnnn3Cc3ccc(F)cc3)N3CCCCCC3)c(=O)[nH]c2cc1OC (stereo not given) | -10% | -29% | -9% | -13%
19 | O=C(Cc1ccc(Cl)cc1)Nc1ccccc1N1CCN(C(=O)c2ccccc2)CC1 | . | . | 35µM* | -50%
20 | Cc1ccc(C)c(-n2cc(-c3ccccc3)nc2SCC(=O)Nc2ccccc2)c1 | -8%[46.1 µM] | . | -16% | .
21 | CCOc1ccc(NC(=O)NC2CCCCCCC2)cc1 | ? | ? | 21% | 1%
22 | CCCn1nc(-c2nnc(-c3ccc(C)c(C)c3)o2)c2ccccc2c1=O | 4% | 19% | 14% | 5%
23 | CCCCc1nc2sc3c(SCCN(C)C)ncnc3c2c2c1CCC2 | 17% | 4%[14.2 µM] | -26% | 2%
24 | C/[N+]([O-])=C\c1cccc(OCCN2CCN(c3ncc(C(F)(F)F)cc3Cl)CC2)c1 | -17%[46.1 µM] | ? | ? | -5%
25 | COCCn1c(C)cc(C(=O)COC(=O)c2ccc(S(=O)(=O)N(C)C)cc2)c1C | 0%[46.1 µM] | 5%[46.1 µM] | -16% | .
26 | COc1ccc(C2c3[nH]c4ccccc4c3C[C@H]3C(=O)N(C)CC(=O)N23)cc1OC (stereo not given in full) | . | . | -17% | -1%
27 | Cn1cnnc1SCCNS(=O)(=O)c1cccc([N+](=O)[O-])c1 | 11% | 12% | -15% | -7%
28 | COC(=O)c1ccc(CSc2nc3ccncc3n2Cc2ccc(F)cc2)cc1 | . | ? | 11% | .
29 | CCCCC1(C)OC(=O)C(=Cc2ccc(N(C)C)cc2)C(=O)O1 (stereo not given) | -3% | 20% | -21% | -85%
30 | CCC(=O)Nc1cccc(NC(=S)NC(=O)c2ccc(Cl)cc2Cl)c1 | ? | ? | 0% | 22%

entry | RE007 growth inh | Cruzain inh Det | SARS PLP yeast | Cruzain noTriton
16 | 0% | . | 5% | .
17 | -7% | . | 9% | .
18 | -11% | -14% | 3% | ?
19 | 3% | . | -10% | .
20 | . | -1.3% | . | ?
21 | -10% | . | 3% | .
22 | 2% | 0.8% | 1% | 1%
23 | 2% | . | 2% | .
24 | 6% | . | -3% | .
25 | -11% | . | -2% | .
26 | 21% | . | 1% | .
27 | 14% | . | 7% | .
28 | . | -5.3% | . | -8%
29 | 0% | 1.4% | 3% | 7%
30 | 0% | -9.9% | 2% | 2%

(continued)
entry | SMILES | LASV entry inh | MARV entry inh | StopGo reporter | NS1 function inh
31 | CCOc1cc(/C=N/NC(N)=O)cc(Br)c1OCC(=O)Nc1ccccc1C | -4% | 11µM* | -18% | 8%
32 | COC(=O)CCCCC(=O)C1C(=O)CC(C)(C)C(C(=O)OC)C1=O (stereo not given) | 2% | 6% | -1% | -22%
33 | CN(C)C(=O)N1CCN(C(=O)c2ccccc2Sc2ccccc2C#N)CC1 | -13% | 6% | . | 1%
34 | O=c1/c(=C/c2ccc(CNS(=O)(=O)c3ccccc3)o2)sc2n1CCN=2 | ? | -14% | . | 13%
35 | COc1ccc(Cl)cc1C(=O)Nc1ccccc1N1CCCCC1 | . | . | ? | -8%
36 | CC(=O)Nc1ccc(S(=O)(=O)Nc2cc3c(cc2C(C)=O)OCO3)cc1 | ? | -10% | -12% | 19%
37 | Cc1ccc(C(=O)OC2CCN(c3ccc([N+](=O)[O-])cc3)CC2)cc1 | -2% | -33% | -5% | -1%
38 | CCc1cc2c(=O)oc(-c3ccccc3F)nc2s1 | . | . | -2% | -91%
39 | COc1ccc(-n2c(SCC(=O)Nc3ccc(C)cc3)nc(O)c(Cc3ccccc3)c2=O)cc1 | ? | 13% | -8% | 17%
40 | COCCCNC(=S)Nc1ccc(S(=O)(=O)Nc2cc(OC)nc(OC)n2)cc1 | 2% | -11% | 21% | 18%
41 | Cc1ccc(NC(=O)N2CCCC2C(=O)NCCc2ccccc2)cc1 (stereo not given) | 4% | 12%&12% | 12% | -1%
42 | O=C(Nc1ccc(N2CCOCC2)cc1)c1cccc(S(=O)(=O)N2CCCCC2)c1 | 11% | 7%&1% | ? | 0%
43 | Cc1c(Cl)cccc1NC(=O)CC1SCCNC1=O (stereo not given) | 14% | 4% | 34%[activator] | ?
44 | CCN(C(=O)COC(=O)CNC(=O)c1ccc(C)c(C)c1)C1CCS(=O)(=O)C1 (stereo not given) | 1% | 0% | -5% | -1%
45 | CC(CNC(=O)c1ccccc1Cl)c1ccccc1 (stereo not given) | . | . | 0% | 4%

entry | RE007 growth inh | Cruzain inh Det | SARS PLP yeast | Cruzain noTriton
31 | 16% | -8.0% | -2% | ?
32 | -6% | -0.6% | 4% | 12%
33 | -5% | -2.3% | 0% | 2%
34 | 0% | -2.9% | 0% | -8%
35 | -12% | . | -3% | .
36 | -14% | . | 1% | .
37 | 4% | 1.3% | -6% | 2%
38 | -40% | . | -14% | .
39 | -7% | . | 1% | .
40 | 2% | . | 1% | .
41 | 4% | 2.4% | 2% | 6%
42 | 2% | -5.5% | 10% | 8%
43 | 0% | 2.6% | -1% | 6%
44 | -2% | 25µM* | -2% | 16µM*
45 | -3% | . | 4% | .

Along the list, as entered above.
Nos. 31–37 in RE007 growth inh read 16%, -6%, -5%, 0%, -12%, -14%, 4%
Nos. 31–37 in MARV entry inh read 11µM*, 6%, 6%, -14%, ., -10%, -33%
Nos. 31–37 in Cruzain noTriton read ?, 12%, 2%, -8%, ., ., 2%

Further compounds:
entry | SMILES | LASV entry inh | MARV entry inh | StopGo reporter | NS1 function inh
46 | c1ccc(-c2ncc(CN3CCN(c4ccccn4)CC3)[nH]2)cc1 | . | . | 10% | -3%
47 | Cc1cc(OC(C)C(=O)NC2CC(C)(C)NC(C)(C)C2)c2c(C)cc(=O)oc2c1 (stereo not given) | . | . | 11% | -11%
48 | CCCCN(C(=O)c1ccc2c(c1)OCO2)C1CCS(=O)(=O)C1 (stereo not given) | -12% | -1%[46.1 µM] | -15% | .
49 | COC(=O)c1cnn2c(C)c(Cc3cccc(F)c3)c(C)nc12 | . | . | -11% | -15%
50 | CNC(=O)c1ccc(-n2nc(C)cc2-c2ccccc2)cc1 | 22% | -3% | -18% | 18%

entry | RE007 growth inh | Cruzain inh Det | SARS PLP yeast | Cruzain noTriton
46 | 3% | . | 0% | .
47 | 5% | . | 5% | .
48 | 4% | . | 5% | .
49 | -3% | 2.8% | 10% | 2%
50 | -6% | 8.0% | 2% | -3%
